Source: PubChem
NPYLR7 ag = mosquito NPYLR7 agonism | HEK293T NPYLR7/Galpha15, GCaMP6s calcium fluorescence | 270,000 compounds, 0.15% hits | AID 1259423 | activation, % at 10 µM; in the data active means activation above about 40%;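 further: 0% = vehicle and 100% = reference agonist at the receptor; some compounds past the cut are filed as inactive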
NPYLR7 ag max-min = further read-out of NPYLR7 ag, marked with its call; activation, %; measured here: Max-Min RFU normalised activation; some inactives read as strong as hits;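 span of the calcium signal over five minutes; 0% = vehicle and 100% = native peptide agonist; compound fluorescence can raise it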
Active calls of the source: *; & = joins results of further samples. A portion of the library; the hit share may differ from the screen's.

SMILES | NPYLR7 ag | NPYLR7 ag max-min
COCC(=O)N1CCN(C(=O)c2cn(C(C)C)cc3c(=O)n(-c4ccccc4)nc2-3)CC1 | -5.2 | -7.4
Cc1cccc(NC(=O)C2CCN(c3ccc(-c4cccs4)nn3)CC2)n1 | -9.4 | -16.4
CCn1cc(CN2CCCC(C(=O)Nc3cccc(-n4cccn4)c3)C2)cn1 (stereo not drawn) | 10.7 | 4.4
Cc1ccc(NC(=O)N2CCN(c3ccc(Cl)cc3C)C(=O)C2C)cc1 (stereo not drawn) | -1.5 | 0.7
COCCNC(=O)Cn1nc(C)c([N+](=O)[O-])c1C | 1.0 | -7.7
Cc1cncc(C(=O)Nc2ccc(NC(=O)c3ccc(C)o3)cc2)c1 | -3.1 | -0.1
Cc1nc(C(=O)NC(c2ccncc2)c2ccccc2C)cs1 (stereo not drawn) | 2.9 | 0.1
O=C(O)CCCNS(=O)(=O)c1ccc(Br)s1 | 1.5 | 0.1
CN(C)CCN(C)C(=O)Nc1cnn(-c2ccccc2F)c1 | -23.1 | -25.1
CCc1ccc(-c2cc3c(=O)[nH]nc(SCC(=O)NCCc4ccc(OC)c(OC)c4)n3n2)cc1 | -0.6 | -0.7
CC(C)c1cc(CN(C)C(=O)CCc2nc3ccccc3[nH]c2=O)on1 | -0.8 | 3.0
Cc1c(C)c(C)c(S(=O)(=O)N2CCCC2C(=O)N(C)C)c(C)c1C (stereo not drawn) | -2.7 | -7.1
O=S(=O)(Nc1ccc(F)cc1F)c1cccc2nsnc12 | 0.2 | -4.8
CCOC(=O)C1(Cc2cccc(Cl)c2)CCCN(Cc2ccon2)C1 (stereo not drawn) | 1.2&-3.5 | -2.4&-6.0
CCOC(=O)C1C2C=CC3(CN(C(C)CC)C(=O)C13)O2 (stereo not drawn) | 0.1 | -1.4
Cc1ccc(C(C)C)c(OCCn2c(CO)nc3ccccc32)c1 | 0.3 | -2.4
COc1cccc(C(CN2CCN(C(=O)COCc3ccccc3)CC2)OCc2ccc(C#N)cc2)c1 (stereo not drawn) | 2.5 | 2.9
O=C(CN1C(=O)NC2(CCCc3ccccc32)C1=O)NC1CCSc2ccccc21 (stereo not drawn) | 6.9 | 12.9
CCn1c(C2CCN(C(=O)c3sc(C(C)C)nc3C)CC2)n[nH]c1=O | 13.5 | 10.7
Cc1nc2c(C)cccn2c(=O)c1NC(=O)c1cccc(C(F)(F)F)c1 | 4.9 | 3.1

One compound at a time, as listed above. Values in the order: NPYLR7 ag | NPYLR7 ag max-min
Entry for `CN(C)CCN(C)C(=O)Nc1cnn(-c2ccccc2F)c1` → -23.1 | -25.1
Entry for `Cc1c(C)c(C)c(S(=O)(=O)N2CCCC2C(=O)N(C)C)c(C)c1C` (stereo not drawn) → -2.7 | -7.1
Entry for `Cc1cncc(C(=O)Nc2ccc(NC(=O)c3ccc(C)o3)cc2)c1` → -3.1 | -0.1
Entry for `O=S(=O)(Nc1ccc(F)cc1F)c1cccc2nsnc12` → 0.2 | -4.8
Entry for `Cc1nc2c(C)cccn2c(=O)c1NC(=O)c1cccc(C(F)(F)F)c1` → 4.9 | 3.1

(further entries)
SMILES | NPYLR7 ag | NPYLR7 ag max-min
CC(=O)NC(C(=O)O)=C(Cl)Cl | 4.7 | 8.7
Cc1ccc(C(=O)N2CCC(Cc3cccc(C(=O)O)c3)CC2)c(=O)n1C | 3.4 | 0.2
Cc1sc2nc(Cn3cnc4c3c(=O)n(C)c(=O)n4C)[nH]c(=O)c2c1C | -3.8 | 6.6
CC1(C)C2CC=C(C=Nn3c(-c4ccc(OC(F)F)cc4)n[nH]c3=S)C1C2 (stereo not drawn) | -2.6 | 2.5
O=S1(=O)C=CC(N(CCOc2ccccc2)Cc2ccccc2)C1 (stereo not drawn) | 11.9 | 8.8
C[S@](CC(=O)O)=c1c(=O)c2ccccc2c1=O | 8.6 | 7.1
CCN(C(=O)c1cc(Cl)c2cccc(Br)c2n1)C1CCCC1 | -0.5 | 27.3
CCN1CCN(CC(=O)NCc2ccc3[nH]c(-c4ccccc4F)c(C)c3c2)CC1 | 19.5 | 10.5
O=C(COc1ccc(F)cc1)N1CCN(S(=O)(=O)c2ccccc2Cl)CC1 | 0.9 | 6.6
O=C(c1cccs1)N(Cc1nccn1Cc1ccc(Cl)cc1Cl)C1CCCCC1 | 3.0 | 9.6
Cc1cccc(NC(=O)CSc2nc(N)c(NC(=O)c3ccc(C(F)(F)F)cc3)c(=O)[nH]2)c1C | 5.1 | 1.6
CC(Cc1ccc(N(C)C)cc1)NC(=O)CNC(=O)CC(C)(C)C (stereo not drawn) | 4.2 | 1.3
CC(C)c1cccc(Oc2cc(C(C)C)nc(SCc3ccc(C(F)(F)F)cc3)n2)c1 | 22.3 | 12.2
CCc1c(C)sc(NC(=O)c2noc(C)c2[N+](=O)[O-])c1C#N | 9.2 | 8.5
Cc1ccc(S(=O)(=O)NC(C)c2ccc(Cl)cc2Cl)s1 (stereo not drawn) | 0.4 | 0.2
FC(F)(F)c1nnc2ccc(N3CCN(Cc4ccsc4)CC3)nn12 | 24.2 | 17.8
Cn1ccc(C(=O)Nc2ccc(C(=O)O)cc2)n1 | -9.2 | -11.0
CCOC(=O)C1CCCN(C(=O)c2nn(-c3ccc(OC)cc3)c(=O)n(Cc3ccccc3F)c2=O)C1 (stereo not drawn) | -3.5 | -2.0
CCC(=O)N1CCSC12C(=O)N(Cc1ccccc1Cl)c1ccc(C)cc12 (stereo not drawn) | 18.2 | 19.7
Cn1c(=O)c2cc(C(=O)NCc3ccco3)n(Cc3ccco3)c2n(C)c1=O | -1.3 | -3.2
COC(=O)CCCC(=O)N1CCN(c2nc3ccccc3nc2C)CC1 | 14.5 | 4.9
CC(C)/C=C/C(=O)N1CCC(N2CCC(C(=O)NCc3ccccn3)CC2)CC1 | 5.2 | 3.5
Cc1ccc(Cl)cc1-n1c(SCc2nc(C(=O)N3CCC(n4c(=O)[nH]c5ccccc54)CC3)cs2)nnc1-c1cccnc1 | 15.1 | 10.9
CCCC(=O)Nc1nnc(SCCCOc2ccccc2)s1 | -3.5 | -0.1
COc1ccc(-c2cc3nc(C)cc(NC4CCCCC4)n3n2)cc1OC | 0.1 | -1.0
Cn1c(CSc2ncccn2)nnc1SCC(N)=O | -4.9 | -3.4
CSc1nc2ccccc2n1CC(=O)NC(c1ccccc1)c1ccccc1 | 2.9 | 0.4
O=C(COCc1ccccc1)N(CC(=O)N1CCc2sccc2C1c1ccc(Cl)cc1Cl)Cc1ccc(F)cc1 (stereo not drawn) | -8.4 | -10.2
O=C(OCc1cn2ccccc2n1)c1cc(=O)c2ccccc2o1 | 10.2 | 12.5
CN1C(=O)C2(Nc3ccc(Cl)cc3C(=O)N2C2CC2)c2ccccc21 (stereo not drawn) | -2.4 | -3.2
O=S(=O)(Nc1cccc(N2CCC(NC3CCc4ccccc43)CC2)c1)c1ccc(F)cc1 (stereo not drawn) | 3.2 | -3.9
Cc1ccc2c(-c3cc4c(n(CC5CC5)c3=O)CCN(C(=O)Cc3c(C)noc3C)C4)cccc2n1 | 16.7 | 10.9
Nc1nc(Nc2ccccc2Br)nc(C(F)(F)F)n1 | 1.1 | -2.3
O=C(NCc1ccc(Cl)cc1)C1CCCN(S(=O)(=O)c2ccc(Br)s2)C1 (stereo not drawn) | 2.7 | 5.9
CCC1c2ccsc2CCN1C(=O)c1cccc(S(=O)(=O)N(C)C)c1 (stereo not drawn) | 5.8 | 2.5
CN(C)c1nc(-c2ccccc2)nc2c1CN(C(=O)c1ccccc1Br)CC2 | 0.2 | 6.9
Cc1onc(-c2ccccc2Cl)c1C(=O)Nc1ccccc1Cl | -1.7 | -6.1
CC(C)(C)OC(=O)NC(CC(=O)O)c1ccc(F)cc1 (stereo not drawn) | -0.9 | -2.6
CC1CN(C)CCN1C(=O)c1cccn1Cc1ccncc1 (stereo not drawn) | 5.2 | 6.0
Fc1ccc(Nc2nc3nonc3nc2N2CCC(Cc3ccccc3)CC2)cc1 | -8.5 | -13.1

Pulled by structure from above, 5 records:
SMILES | NPYLR7 ag | NPYLR7 ag max-min
Cc1ccc2c(-c3cc4c(n(CC5CC5)c3=O)CCN(C(=O)Cc3c(C)noc3C)C4)cccc2n1 | 16.7 | 10.9
COC(=O)CCCC(=O)N1CCN(c2nc3ccccc3nc2C)CC1 | 14.5 | 4.9
Fc1ccc(Nc2nc3nonc3nc2N2CCC(Cc3ccccc3)CC2)cc1 | -8.5 | -13.1
CCCC(=O)Nc1nnc(SCCCOc2ccccc2)s1 | -3.5 | -0.1
CC1CN(C)CCN1C(=O)c1cccn1Cc1ccncc1 (stereo not drawn) | 5.2 | 6.0

Reformatted: entries from further up
molecule: O=C(COCc1ccccc1)N(CC(=O)N1CCc2sccc2C1c1ccc(Cl)cc1Cl)Cc1ccc(F)cc1 (stereo not drawn)
  NPYLR7 ag: -8.4
  NPYLR7 ag max-min: -10.2
molecule: O=C(OCc1cn2ccccc2n1)c1cc(=O)c2ccccc2o1
  NPYLR7 ag: 10.2
  NPYLR7 ag max-min: 12.5

(more compounds)
SMILES | NPYLR7 ag | NPYLR7 ag max-min
O=C(C1CCCC1)N(Cc1ccco1)Cc1c(-c2ccc(F)cc2)noc1N1CCOCC1 | 4.3 | 12.3
O=C(C1CC1)N(CC(=O)N1CCc2sccc2C1COc1ccc(Cl)cc1)Cc1ccco1 (stereo not drawn) | -1.6 | 1.3
Cn1c2nc(=Nc3ccccc3)n3c(c2c(=O)n1-c1ccccc1)CCCCCC3 | 12.2 | 12.2
COc1ccc(-c2cn(S(=O)(=O)c3c(F)c(F)c(F)c(F)c3F)nc2N)cc1OC | -1.5 | -1.5
CC(C)Nc1nnc(SCC(=O)N(C)Cc2cccs2)s1 | 1.0 | -2.1
O=C(NCC(O)c1ccc(F)cc1F)c1cc2c(s1)CCCCCC2 (stereo not drawn) | -5.4 | -4.4
CCOC(=O)N1CCN(C2CCCN(C(=O)c3ccc(O)cn3)C2)CC1 (stereo not drawn) | 3.7 | 1.7
Cc1cccc(Cn2c(=O)c(C(=O)NCCN(C)C)nn(-c3ccc(F)cc3)c2=O)c1 | 12.9 | 14.6
COCCN(Cc1nc2scc(-c3ccc(OC)cc3)c2c(=O)[nH]1)CC(O)c1ccccc1 (stereo not drawn) | 11.7 | 16.7
COCc1ccc(CN2CCC(CO)(Cc3cccc(OC)c3)CC2)o1 | 5.2 | 1.4
Cc1cccc(CSc2cc(C)[nH]c(=O)n2)c1 | -3.4 | -4.6
CC1CCN(C(=O)C[C@@H]2O[C@H](CNC(=O)Nc3ccccc3)[C@@H](O)[C@H]2O)CC1 | 13.7 | 13.7
O=C(c1ccc(Cl)nc1)N(Cc1ccco1)Cc1nc2cc(Cl)ccc2o1 | -8.0 | -4.5
Cc1cccc(NC(=O)CSc2ccc(-c3ccncc3)nn2)c1 | -5.1 | -11.8
CCOC(=O)C1CCN(C(=O)CC(c2cccc(Cl)c2)c2cn(CC)c3ccccc23)CC1 (stereo not drawn) | 6.8 | 16.4
O=C(Nc1nccs1)c1ccc2ccccc2n1 | -5.4 | -7.5
COc1ccccc1NC(=O)CSc1nc2[nH]ncc2c(=O)[nH]1 | -0.1 | -0.3
COc1cc(NC(=O)c2cc(=O)c(OCc3ccccc3)c[nH]2)cc(OC)c1OC | -5.9 | -8.9
O=S(=O)(c1ccccc1C(F)(F)F)N1CCN(c2nc3nccc(-c4cc(Cl)ccc4Cl)n3n2)CC1 | 5.3 | 1.2
C=CCn1c(SCc2ccccc2C#N)nnc1-c1ccc(OC)cc1 | -0.6 | 9.1
O=C(CSc1ncccn1)N1CCC(CO)(Cc2cccc(C(F)(F)F)c2)CC1 | 0.8&-7.1 | -3.8&-11.7
O=S(=O)(Nc1ccc(-c2ccccc2)cn1)c1cccnc1 | 7.7 | 5.3
N#Cc1ccccc1OC/C=C/COc1ccccc1C#N | 3.7 | 7.9
COc1cc(Cn2nc(C3CC3)c3cnn(-c4ccc(F)cc4)c3c2=O)cc(OC)c1 | -3.2 | -2.3
CCc1noc(C)c1C(=O)Nc1cc(C(C)(C)C)ccc1OC | 13.3 | 4.2
Cc1cc(C)cc(-n2c(SCC(=O)N3CCCc4ccccc43)nc3c(c2=O)SCC3)c1 | -5.5 | -7.7
O=C(Cc1ccc(F)cc1)N(Cc1cccnc1)c1nc2ccc(F)cc2s1 | 1.6 | 1.3
Nc1nonc1C(=O)NCCNC(=O)c1ccco1 | 1.7 | -0.3
Cc1cc(C(=O)N2CCCC(O)(CN(C)C)CC2)n[nH]1 (stereo not drawn) | -0.3 | -1.7
CC(=O)Nc1ccc(NC(=O)c2cnc3sc(C)cn3c2=O)cc1 | 3.2 | -2.2
O=C(NC1CC2CCC(C1)N2CCc1ccccc1)c1c(Cl)cc(Cl)cc1Cl (stereo not drawn) | 0.8 | 7.7
CCc1c(C)c(C(=O)NCCc2ccccn2)n(Cc2cccc(C)c2)c1C | -1.4 | 10.2
Cc1ccc(-n2c(C(C)N(Cc3ccccc3)C(=O)COCc3ccccc3)nc3ccccc3c2=O)cc1C (stereo not drawn) | -6.1 | -5.6
Cc1nc(-c2nccn2CC(c2cccnc2)N2CCOCC2)co1 (stereo not drawn) | -12.5 | -14.2
CC(C)n1nccc1NC(=O)CN(C)S(=O)(=O)c1ccc(Cl)s1 | 8.5 | 2.4
Cc1ccc(CN(C)CC(=O)Nc2ccc(N3CCCC3=O)cc2)cc1 | 1.8 | 0.8
CCOC(=O)c1c(C)[nH]c(C(=O)C(C)N2CCOCC2)c1C (stereo not drawn) | 6.9 | 5.8
O=C(CCc1c[nH]c2ccccc12)N1CCCC(Nc2ccc(F)c(F)c2)C1 (stereo not drawn) | 7.4 | 5.9
CC(C)CNc1ncnc2c1sc1nc(C(C)C)c3c(c12)CC(C)(C)OC3 | 7.3 | -0.5
CNC(=O)c1nc(CN2CCOC(Cc3ccc(F)cc3)C2)no1 (stereo not drawn) | -2.8 | -4.1
Cc1ccc(Cn2cnc3c(nnn3-c3cccc(C)c3)c2=O)cc1 | -7.5 | -12.1
COC1=C(OC)C(=O)C(Sc2ccc3ccccc3c2)=C(Cl)C1=O | 1.1 | -3.1
O=C(c1ccc(=O)[nH]c1)N1CCC(COCc2ccccc2)CC1 | 0.3 | -1.7
